Bioassay records (PubChem)
ALR H2O2 inh – human ALR oxidase inhibition via reduced H2O2; P55789; purified ALR, DTT oxidation, H2O2 HRP-luminol luminescence; inhibition, % (no concentration beside the values); hit rate 3.8% among 290,000; AID 485317;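 active = mean and each replicate at 75% or more; inconclusive = only one of the two met; inactive = neither met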;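 note: stock transfer was 7.5 nL into about 7.5 µL; 0% = neutral wells and 100% = wells with inactivated enzyme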
Target sequence (P55789 whole entry, looked up): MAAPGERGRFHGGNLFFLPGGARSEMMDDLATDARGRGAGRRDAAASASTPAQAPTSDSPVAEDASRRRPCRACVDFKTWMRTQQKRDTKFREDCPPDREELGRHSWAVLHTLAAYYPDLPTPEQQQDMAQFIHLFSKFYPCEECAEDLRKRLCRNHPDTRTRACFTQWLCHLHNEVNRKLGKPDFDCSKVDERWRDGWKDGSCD
E coli growth – inhibitors of Escherichia coli growth | OD600, 23 h; active compounds read low | OD600 absorbance (no concentration beside the values) | hit rate 0.21% among 330,000 | AID 1053175;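 active = OD600 absorbance below the run mean of sample wells minus 3.6 SD, in any replicate, cut at about 0.56 in these data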;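 note: stock transfer was 300 nL into about 60 µL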
FGF22 binding – FGF22 (human) thermal shift binding; recombinant FGF22 thermal shift, SYPRO orange fluorescence; percent of sucrose octasulfate shift, DMSO zero; calls only at 9.99 µM; Q9HCT0; hit rate 1.5% among 340,000;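 active = melting point raised past a set limit in the mean and every replicate; inconclusive = no clear call; three in four hits are not shown here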
UCH37 DUB inh – human UCH37 deubiquitinating enzyme inhibition; inhibition, % (no concentration beside the values); hit rate 0.33% among 330,000; AID 588478; purified proteasome/UCH37, Ub-AMC cleavage fluorescence;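 active = mean of two replicates above 20%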;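 note: 0% = compound-free wells with enzyme and 100% = wells lacking proteasome; stock transfer was 100 nL into about 20 µL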
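Material: Human UCH37 enzyme supplied as purified proteasome complex | Schedule: 30 min compound-proteasome preincubation then 25 min substrate reaction, room temperature | Detection: AMC fluorescence from Ub-AMC cleavage, excitation 355 nm, emission 460 nm | Benchmarks: Wells without proteasome as full block, compound-free enzyme plus substrate as uninhibited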
HNF4A DNA FP – change in binding of human HNF4 alpha to DNA. P41235. HNF4a-FITC DNA binding, fluorescence polarization, 1 h. activity change, % at 10 µM. hit rate 0.3% among 360,000. AID 1224865; in the data active = activity change above about 30%, passing the limit was not always enough;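 note: controls were the assay level and a saturating level of protein; the project sought stronger binding though the title names inhibitors; some compounds called inactive have numbers as strong as hits; positive values seem to mean higher polarization but the record does not say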
Target sequence (P41235 whole entry, looked up): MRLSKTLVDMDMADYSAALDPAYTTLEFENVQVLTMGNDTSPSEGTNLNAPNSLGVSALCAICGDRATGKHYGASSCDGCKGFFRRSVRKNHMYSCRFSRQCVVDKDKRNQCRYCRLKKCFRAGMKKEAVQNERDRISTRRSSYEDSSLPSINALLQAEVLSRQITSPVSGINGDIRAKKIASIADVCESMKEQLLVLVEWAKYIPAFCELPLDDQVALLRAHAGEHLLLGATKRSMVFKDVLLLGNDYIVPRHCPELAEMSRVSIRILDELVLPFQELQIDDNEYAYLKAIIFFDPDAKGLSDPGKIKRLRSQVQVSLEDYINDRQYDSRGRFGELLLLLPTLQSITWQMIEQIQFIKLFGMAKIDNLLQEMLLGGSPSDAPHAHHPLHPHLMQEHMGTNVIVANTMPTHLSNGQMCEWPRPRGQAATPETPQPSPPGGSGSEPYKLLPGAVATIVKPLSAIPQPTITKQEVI
Beta2AR agonist – agonists of human beta-2 adrenergic receptor inducing internalization. response, % (concentration not given with the values). Am2.2-beta2AR cells, FAP receptor internalization, flow cytometry; reference of the scale not given here. hit rate 0.43% among 340,000. P07550;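 active = response above a set limit, near 3 SD of response in nonfluorescent compounds, cut at about 42% in these data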;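 note: stock transfer was 100 nL into about 11 µL; a reference agonist was the positive control; negative values mostly stem from fluorescent compounds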
Target sequence (P07550 whole entry, looked up): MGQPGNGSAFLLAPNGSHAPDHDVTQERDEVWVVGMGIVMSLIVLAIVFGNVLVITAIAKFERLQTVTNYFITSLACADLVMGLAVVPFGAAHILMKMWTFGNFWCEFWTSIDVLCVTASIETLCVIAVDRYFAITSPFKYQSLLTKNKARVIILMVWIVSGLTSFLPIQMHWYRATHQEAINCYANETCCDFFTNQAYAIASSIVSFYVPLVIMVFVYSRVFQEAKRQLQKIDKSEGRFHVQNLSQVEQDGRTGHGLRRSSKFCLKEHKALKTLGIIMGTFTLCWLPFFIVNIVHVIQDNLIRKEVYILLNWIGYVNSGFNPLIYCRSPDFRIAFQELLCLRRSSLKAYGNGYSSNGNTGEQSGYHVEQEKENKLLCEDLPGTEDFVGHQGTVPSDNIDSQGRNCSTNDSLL
Ecoli rRNA inh – inhibits bacterial ribosomal RNA function over humanized ribosomes. E. coli WT GFP vs humanized-ribosome RFP mutants, fluorescence, 24 h; active compounds read low; DMSO median 0, no signal -100. GFP signal change (wild-type ribosome), % (no concentration beside the values). hit rate 1.6% among 350,000;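 active = significant combined selectivity score with lowered wild-type GFP, culture density cut under 30%, mutant RFP and density less affected; inactive = any of these conditions unmet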; note: one replicate is shown; some compounds called inactive have numbers as strong as hits
Ecoli rRNA inh OD600 – recorded beside Ecoli rRNA inh, whose call it bears; OD600 change, %; measured here: OD600 growth;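 optical density of the mix in the first replicate; 0 = DMSO median and -100 = no signal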
Ecoli rRNA inh RFP – further read-out of Ecoli rRNA inh, marked with its call; RFP signal change, %; measured here: RFP humanized mutant strains;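 first replicate; 0 = DMSO median and -100 = no signal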
The depositor's hits bear a star; i = inactive; ? = inconclusive; . = no result given; & = joins results of further samples. An excerpt; count on the stated rates, not on these rows.

SMILES | ALR H2O2 inh | E coli growth | FGF22 binding | UCH37 DUB inh | HNF4A DNA FP | Beta2AR agonist | Ecoli rRNA inh | Ecoli rRNA inh OD600 | Ecoli rRNA inh RFP
Oc1ccc(C=Nc2ccccc2-c2nc3ccccc3[nH]2)c(O)c1 | 82* | 0.7 | i | i | -0.5 | 21 | -39 | -72 | -7.0
CC(C)C(=O)NC(c1ccccc1)c1cc([N+](=O)[O-])c2cccnc2c1O (stereo unspecified) | -16 | 0.67 | i | 11 | -5.9 | 3 | -8 | -3 | 18
O=[N+]([O-])c1cc([N+](=O)[O-])c(Oc2c(F)ccc(F)c2F)cc1NN1CCCCC1 | 96* | 0.69 | i | 5.6 | 2.2 | 7 | -3 | 13 | -1.6
Cc1ccc(-n2c(SCC(=O)N/N=C/c3c(C)nn(-c4ccccc4)c3C)nc3ccccc3c2=O)cc1 | -14 | . | i | . | 0.5 | -4 | 6 | 8 | 11
CN(C)CCC(C(=O)c1ccccc1)c1ccccn1 (stereo unspecified) | . | 0.69 | . | 0.2 | -3.5 | -4 | . | . | .
Cc1nnc(SCC(=O)NCCN2C(=O)CSC2=O)n1-c1ccccc1 | . | 0.68 | i | -2.0 | -1.4 | -1 | 2 | 1 | -2.0
CCOC(=O)c1c(NC(=O)CN2C(=O)NC(C)(c3ccccc3)C2=O)sc(C)c1C (stereo unspecified) | -3 | 0.72 | i | 0.2 | -4.2 | 11 | -10 | -22 | 5.2
CC(C)n1c(C(=O)OCC(=O)NCc2ccc3c(c2)OCO3)cc2sccc21 | -4 | 0.69 | i | 2.9 | 2.8 | -2 | -25* | -9.6* | -2.0*
CCOC(=O)c1cccc(NC(=O)/C=C/c2ccc3c(c2)OCO3)c1 | -13 | 0.64 | . | -8.7 | 1.6 | 1 | . | . | .
O=C(N[C@@H](Cc1ccccc1)C(=O)NC1CC1)c1ccc(Cl)cc1 | -3 | 0.61 | . | 2.9 | 0.2 | 10 | 7 | 17 | 2.3
CC(C)(C)C(=O)O/N=C(\N)c1c(Cl)cccc1Cl | 12 | . | i | . | 0.3 | 2 | 8 | -8 | -1.6
O=S(=O)(NC1CC1)c1ccc(S(=O)(=O)N2CCc3ccccc32)cc1 | 2 | 0.67 | . | 1.1 | -1.4 | 9 | -20* | -14* | 2.3*
CCN1/C(=C/C(C)=C/c2sc3ccccc3[n+]2CC)Sc2ccccc21 | 99* | 0.21* | i | 28* | 197* | -357 | -36&22 | -66&-51 | 59&55
COC(=O)[C@@]12C[C@@H](CC(=O)NCCC(C)C)C(=O)N(Cc3cccc4ccccc34)C1=CCC(C)(C)C2 | . | . | i | . | 3.7 | . | 1 | 4 | 0.5
COC(=O)c1cccc(Nc2c3c(nc4ccccc24)CCC3)c1 | . | 0.62 | i | -21 | 4.6 | -11 | -3 | -47 | 1.0

The final 3 records of the section above come first, to join the parts:
SMILES | ALR H2O2 inh | E coli growth | FGF22 binding | UCH37 DUB inh | HNF4A DNA FP | Beta2AR agonist | Ecoli rRNA inh | Ecoli rRNA inh OD600 | Ecoli rRNA inh RFP
CCN1/C(=C/C(C)=C/c2sc3ccccc3[n+]2CC)Sc2ccccc21 | 99* | 0.21* | i | 28* | 197* | -357 | -36&22 | -66&-51 | 59&55
COC(=O)[C@@]12C[C@@H](CC(=O)NCCC(C)C)C(=O)N(Cc3cccc4ccccc34)C1=CCC(C)(C)C2 | . | . | i | . | 3.7 | . | 1 | 4 | 0.5
COC(=O)c1cccc(Nc2c3c(nc4ccccc24)CCC3)c1 | . | 0.62 | i | -21 | 4.6 | -11 | -3 | -47 | 1.0
Cc1cccc(OCC(O)CN2CCN(CCN3C(=O)c4cccc5cccc(c45)C3=O)CC2)c1C (stereo unspecified) | -9 | 0.62 | i | -8.2 | -6.6 | -8 | -55 | -78 | -17
COc1ccc(-c2ccc3c(c2)[C@@H]2C[C@H](N(C)S(=O)(=O)c4ccccc4)[C@H]([C@H](C)O)C(=O)N2CC3)cc1 | . | . | i | . | 2.0 | -8 | -4 | -5 | 7.3
NC(N)=N/N=C/c1ccc(Br)cc1 | 9 | . | i | . | -6.7 | 21 | 3 | 4 | 2.4
O=C(c1ccc(Cl)c(S(=O)(=O)N2CCCCCC2)c1)N1CCN(c2ccc(O)cc2)CC1 | ? | 0.66 | i | -2.8 | -2.6 | 0 | -16 | -15 | 0.6
COC(=O)c1ccc(N)c(N=CC2=C(O)CC(C)(C)CC2=O)c1 | . | 0.69 | i | -0.3 | 22 | -20 | 5 | 1 | 44
COc1ccc(NC2CC(=O)N(c3cccc([N+](=O)[O-])c3)C2=O)cc1 (stereo unspecified) | 89* | 0.7 | i | 2.2 | -1.0 | -2 | 8 | 12 | 1.1
CC1CN(Cc2ccccc2)C(=S)NC1=O (stereo unspecified) | . | 0.67 | i | -0.1 | -1.9 | -2 | 6 | 9 | 0.3
Cc1c(C(=O)O)sc2nc(SCC(=O)Nc3ccc(S(=O)(=O)NC(C)(C)C)cc3)[nH]c(=O)c12 | -29 | 0.67 | i | 2.8 | -1.4 | 3 | 4 | 4 | 2.9
O=C(c1ccccc1Cl)c1c(O)c2ccccc2oc1=O | 8 | 0.64 | i | 10 | -2.6 | 0 | -28 | -64 | -2.3
CC(C)c1ccc(/C=C/C(=O)NCCCN2CCOCC2)cc1 | 4 | 0.67 | i | 5.6 | -1.5 | -11 | 0 | 0 | 0.5
O=C(NCc1ccccc1Cl)c1ccc(Cn2cc(C(F)(F)F)ccc2=O)cc1 | -4 | 0.7 | . | 1.4 | -2.7 | 1 | . | . | .
N#Cc1ccccc1NC(=O)c1ccccc1OCC(=O)NCc1ccco1 | -3 | 0.62 | i | 1.0 | 3.0 | -10 | 6 | 9 | 0.0
O=C(NC(=O)c1ccccc1Cl)Nc1ccc(-c2cnco2)cc1 | -6 | 0.66 | i | 0.9 | 4.0 | 19 | 13 | 2 | 0.9
CC(=O)OC(C(=O)n1nc(C)cc1C)c1ccccc1 (stereo unspecified) | -12 | 0.68 | . | 3.7 | -2.8 | -9 | . | . | .
CC(C)S(=O)(=O)C1=NSC2=NC(=O)/C(=C\c3ccc(-c4ccccc4)o3)C(=N)N21 | 35 | 0.65 | . | 3.0 | 25 | 7 | . | . | .
CCc1cc(C(=O)Cc2nc3ccccc3[nH]2)c(O)cc1O | 4 | 0.67 | . | -68 | 1.8 | -8 | . | . | .
CCCCN1Cc2ccccc2Oc2cc(Br)ccc2S1(=O)=O | . | 0.7 | i | 1.2 | -3.2 | 2 | 3 | -5 | -0.2
Cc1cc(C)c(S(=O)(=O)N2CCC(C(N)=O)CC2)cc1C | -6 | 0.66 | . | 2.2 | -2.2 | 3 | . | . | .
COc1ccc(Nc2cc(Nc3cccc(OC)c3)ncn2)cc1 | . | 0.7 | i | 1.0 | 3.2 | 16 | 2 | 10 | -2.3
COc1cccc(-c2nnn(C/C(N)=N/O)n2)c1 | 4 | 0.65 | i | 2.7 | 2.9 | 5 | 10 | 7 | -2.1
CCOC(=O)N1CCC(N2CCN(S(=O)(=O)c3ccc([N+](=O)[O-])cc3)CC2)CC1 | -18 | 0.69 | i | -1.0 | 0.9 | 4 | 8 | 0 | 2.8
Cc1ccc(S(=O)(=O)N2CCOCC2)cc1C(=O)NCCCn1ccnc1 | -4 | 0.65 | . | 0.7 | 2.4 | -3 | . | . | .
COc1ccc(CNC(=O)CN2c3ccccc3S(=O)(=O)c3ccccc32)cc1 | -18 | 0.7 | i | 4.2 | 7.8 | 0 | 2 | 11 | 1.1
CCOc1ccccc1N1CCN(C(=O)CNC(=O)c2ccccc2F)CC1 | -2 | 0.69 | i | 1.7 | 0.2 | -3 | 2 | -9 | -0.2
CC(OC(=O)Cn1c(C(F)(F)F)nc2ccccc21)C(=O)N1CCCc2ccccc21 (stereo unspecified) | . | 0.69 | . | -3.9 | -0.9 | 0 | . | . | .
COc1ccc(Nc2ccc3c(c2)=NC2(CCCCC2)[N+]=3[O-])cc1 | -2 | 0.59 | . | 19 | -4.9 | 2 | . | . | .
CCOc1ccccc1NC(=O)/C(C#N)=C/c1cccnc1 | -6 | 0.72 | i | 2.6 | -1.1 | -8 | 1 | 0 | 1.3
CCOc1cc(C(=O)NC(=S)Nc2nc(C)cc(C)n2)cc(OCC)c1OCC | 0 | 0.69 | i | 0.0 | -0.2 | -8 | -8 | -8 | 2.4
Cc1cc(C)nc(SCc2nnc(SCC(=O)Nc3nccs3)n2Cc2ccco2)n1 | . | 0.72 | . | 1.8 | 4.1 | -13 | . | . | .
CCOc1ccc(CN(C)CC(O)COC(c2ccc(OC)cc2)c2ccc(OC)cc2)cc1 (stereo unspecified) | 2 | 0.65 | i | 1.6 | -4.3 | 13 | -15 | -41 | 24
Fc1ccc(-c2nnc(CSc3nnc(-c4cccs4)o3)o2)cc1 | 6 | 0.7 | . | -0.3 | 2.3 | -9 | . | . | .
CCN1CCN(C(=O)C2CC(=O)N(c3ccc(Cl)cc3)C2)CC1 (stereo unspecified) | -25 | 0.69 | i | 2.7 | -0.4 | 6 | 0 | 4 | -0.6
CCC1(CC)NC(=O)N(CC(=O)OCC(=O)NC(=O)c2ccc(Cl)cc2)C1=O | 21 | 0.66 | i | 1.4 | -2.7 | 3 | 9 | 0 | 1.2
Cc1cccn2c(=O)c(/C=C(\C#N)C(=O)NCc3ccco3)c(N3CCCCC3)nc12 | 4 | 0.63 | i | 2.4 | 1.4 | -24 | 6 | -2 | 2.7
CC(=O)Nc1ccc(NC(=O)CN(c2ccc([N+](=O)[O-])cc2)S(=O)(=O)c2ccccc2)cc1 | -21 | 0.58 | i | 1.6 | -0.4 | 2 | -8 | 2 | -5.4
CC1CCCC(C(=O)OCc2ccccc2)N1 (stereo unspecified) | -6 | 0.77 | . | 5.6 | -0.1 | 1 | . | . | .
O=C(CCC1CCN(C(=O)Cc2c(F)cccc2F)CC1)NC1CC1 | -12 | 0.64 | i | 0.7 | 2.3 | 3 | 2 | -3 | -1.9
O=C1c2ccccc2S(=O)(=O)N1Cc1cccc(S(=O)(=O)N2CCOCC2)c1 | -3 | 0.73 | . | -1.6 | 3.0 | -5 | . | . | .
CCOC(=O)c1sc(=S)n(C)c1C | -8 | 0.65 | . | 6.9 | 0.3 | -12 | . | . | .
Cn1nc(C(=O)Nc2ccccc2N2CCOCC2)ccc1=O | 16 | 0.69 | i | 5.5 | -2.5 | 5 | -4 | -6 | -3.9
C(=C\c1ccccc1)/C=N/Nc1nncc(-c2ccccc2)n1 | -33 | . | i | . | . | . | 6 | 4 | 14
Cc1ccc(S(=O)(=O)N2CCC(C(=O)Nc3ccccc3N3CCCCC3)CC2)cc1C | -1 | 0.72 | i | 6.0 | -1.0 | 16 | 1 | 1 | -0.4
OCc1ccccc1OCCOc1ccc(Cl)c2cccnc12 | . | 0.68 | . | -9.3 | 3.3 | 2 | . | . | .

Reformatted: 3 of the compounds above
Under each structure: ALR H2O2 inh	E coli growth	FGF22 binding	UCH37 DUB inh	HNF4A DNA FP	Beta2AR agonist	Ecoli rRNA inh	Ecoli rRNA inh OD600	Ecoli rRNA inh RFP
- O=C(c1ccccc1Cl)c1c(O)c2ccccc2oc1=O
 : 8	0.64	i	10	-2.6	0	-28	-64	-2.3
- COc1ccc(NC2CC(=O)N(c3cccc([N+](=O)[O-])c3)C2=O)cc1 (stereo unspecified)
 : 89*	0.7	i	2.2	-1.0	-2	8	12	1.1
- COc1ccc(CNC(=O)CN2c3ccccc3S(=O)(=O)c3ccccc32)cc1
 : -18	0.7	i	4.2	7.8	0	2	11	1.1
